# TRPML1 ag: activates the human TRPML1 channel; Q9GZU1; TRPML1-expressing cells, Ca2+ dye fluorescence, FDSS; host cell line not named in the record; reference of the full effect not given here; activation, % (concentration not given with the values); actives 0.12% (n = 410,000); in the data active = activation above about 50%; inconclusive = about 30% to 50%; inactive = below about 30%; also: 0% is about no effect; the text of the record puts the active cut at 80%
# Target sequence (Q9GZU1 whole entry, looked up): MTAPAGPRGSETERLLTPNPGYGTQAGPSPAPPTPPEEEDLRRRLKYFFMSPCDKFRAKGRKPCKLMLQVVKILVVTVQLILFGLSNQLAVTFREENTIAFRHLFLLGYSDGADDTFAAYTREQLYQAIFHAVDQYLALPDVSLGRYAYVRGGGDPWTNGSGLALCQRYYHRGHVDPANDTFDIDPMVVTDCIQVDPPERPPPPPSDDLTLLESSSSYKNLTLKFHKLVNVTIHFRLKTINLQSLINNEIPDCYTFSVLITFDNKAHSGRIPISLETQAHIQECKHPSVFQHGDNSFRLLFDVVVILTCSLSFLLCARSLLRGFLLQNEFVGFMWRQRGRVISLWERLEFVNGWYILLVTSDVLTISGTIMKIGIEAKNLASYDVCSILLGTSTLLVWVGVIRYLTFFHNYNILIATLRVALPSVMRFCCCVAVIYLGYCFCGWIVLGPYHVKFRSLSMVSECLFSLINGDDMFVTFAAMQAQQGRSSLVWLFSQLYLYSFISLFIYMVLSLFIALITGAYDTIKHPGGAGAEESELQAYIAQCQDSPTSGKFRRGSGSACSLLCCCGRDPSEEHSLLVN
#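 TRPML1-DL cells, Tet-induced overnight (~16 h, 37 degrees C), loaded 45-90 min at room temperature with Ca8 no-wash calcium dye plus quencher. FDSS fluorescence: 10 s baseline, compound pin-transfer, 110 s agonist read, then EC80 54-4 (4uM final) and 110 s antagonist read.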
# Six1-Eya2 blk: inhibitors of human Six1/Eya2 interaction. activity change, % (concentration not given with the values). AlphaScreen GST-Six1/His-Eya2 binding, biochemical; hits give low values; control for the full effect not named in the record. AID 651725. Q15475+O00167. actives 0.56% (n = 360,000); in the data active = activity change below about -65%; inconclusive = about -30% to -65%; inactive = above about -30%; also: % is scaled to controls: 0 for no effect and ±100 for the full control effect
#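 AlphaScreen with GST-Six1 and His-Eya2 (5X mix: 250 nM and 500 nM), glutathione donor and nickel acceptor beads; buffer 50 mM Tris pH 8.0, 300 mM NaCl, 1 mM TCEP; 1 h at 37 C in the dark.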
# PINK1 expr mod: changes PINK1 expression | PINK1 immunofluorescence, high-content cytometry, 24 h | Potency, µM (series often up to 76.6 µM), without a hit: top-dose activation (PINK1 increase), hits mostly activators | actives 0.2% (n = 410,000); active = well fitted activation curve with a large enough effect; inconclusive = small, poorly fitted or top-dose-only effect; inactive = flat fitted curve, though single readings scatter; cell line not stated here;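 also: potency is read from the fitted curve at half-maximal effect; % of control where 0% means no effect; nearly all actives have a fitted effect of over 65% in size; a mitochondrial uncoupler was the plate control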
#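 Readout is PINK1 immunofluorescence, quantified alongside mitochondrial, cell and nuclear markers by laser-scanning microplate cytometry. Cells from a stable line were exposed to compound titrations (5 concentrations) for 24 hours, with CCCP controls.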
# TRPML1 blocker: inhibitors of human TRPML1 channel | Q9GZU1 | TRPML1-inducible cells, Ca2+ dye fluorescence, FDSS; hits give low values; inhibition of EC80 agonist-evoked calcium signal | activity change, negative = inhibition, % (no concentration beside the values) | actives 0.02% (n = 390,000) | AID 624415; in the data active means activity change below about -50%; inconclusive means about -30% to -50%; inactive means above about -30%;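 also: stimulus is agonist 54-4 at its EC80 concentration; % is scaled to controls: 0 for no effect and ±100 for the full control effect; compound concentration not given in the record; the text of the record puts the active cut at -80%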
#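 Calcium fluorescence in TRPML1-DL cells induced overnight with Tet: a 110 s read after compound pin addition, then a 110 s antagonist read after challenge with 54-4 at 4 uM final (EC80).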
# CtBP-E1A blk: inhibitors of CtBP/E1A interaction; AlphaScreen GST-E1A/His-CtBP binding, 1536-well; hits give low values; control for the full effect not named in the record; actives 0.49% (n = 340,000); activity change, % (no concentration beside the values); in the data active means activity change below about -65%; inconclusive means about -30% to -65%; inactive means above about -30%; also: % is scaled to controls: 0 for no effect and ±100 for the full control effect; compound concentration not given in the record
#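 GST-E1A and His-tagged CtBP (125 nM each as 5X stock) were preincubated with pin-transferred compound for 2 h at 37 °C in the dark, then glutathione donor and nickel acceptor beads were added for 1 h before AlphaScreen reading.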
# D2 ag: activates the human D2 dopamine receptor; DiscoveRx PathHunter D2 beta-arrestin, luminescence, 90 min; 100% = 57 uM dopamine signal; activation, % (test concentration not listed); P14416; AID 624465; actives 0.084% (n = 360,000); in the data active = activation above about 40%; inconclusive = about 15% to 40%; inactive = below about 15%; also: compound concentration not given in the record; the text of the record calls up to 30% inactive
# Target sequence (P14416 whole entry, looked up): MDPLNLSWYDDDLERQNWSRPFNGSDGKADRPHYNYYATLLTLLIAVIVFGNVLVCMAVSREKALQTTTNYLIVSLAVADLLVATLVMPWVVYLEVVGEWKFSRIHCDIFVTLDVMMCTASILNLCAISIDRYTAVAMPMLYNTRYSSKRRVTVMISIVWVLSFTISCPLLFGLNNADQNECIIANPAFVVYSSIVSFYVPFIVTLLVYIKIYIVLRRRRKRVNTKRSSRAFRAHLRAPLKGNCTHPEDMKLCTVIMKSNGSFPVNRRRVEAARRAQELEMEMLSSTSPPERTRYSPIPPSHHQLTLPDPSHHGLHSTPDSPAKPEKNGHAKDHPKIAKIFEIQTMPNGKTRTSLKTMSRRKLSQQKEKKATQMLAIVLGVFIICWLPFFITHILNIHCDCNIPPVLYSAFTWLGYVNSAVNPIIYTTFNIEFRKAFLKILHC
#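 Agonist mode: compounds alone added to overnight-plated D2 PathHunter cells for 90 min at 37 C, with 57 uM final dopamine (EC100) defining full response. Beta-arrestin recruitment detected by chemiluminescent reagent, read after 1 h at ambient temperature.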
# Numbers without * were called inactive; ? = inconclusive; / = no result given; & = joins results of further samples; [ ] = another dose, or the depositor's remark.
# Screens in order – TRPML1 ag	Six1-Eya2 blk	PINK1 expr mod	TRPML1 blocker	CtBP-E1A blk	D2 ag
- COc1ccc(OC)c(S(=O)(=O)N/N=C(/C)c2c[nH]c3ccccc23)c1
 : 1.0	-1	4.7%	-3	5	-0.8
- Cc1ccc(-c2cc3cccc[n+]3cc2-c2ccc(C)cc2)cc1
 : -0.5	14	?	-1	6	-2.9
- COc1ccc(NC(=O)CN(C)C(=O)c2ccc(C)c(S(=O)(=O)N3CCCCC3)c2)cc1
 : -0.7	21	4.3%	-10	/	-0.3
- CN1CC2(C(=O)c3ccccc3)CN(C)CC(C(=O)c3ccccc3)(C1)C2
 : -0.7	5	?	-10	10	-2.3
- O=C(O)c1c(Cl)c(Cl)c(Cl)c(Cl)c1C(=O)N1CCOCC1
 : -0.3	4	-0.2%	10	5	-0.7
- O=C(OCCc1cc2ccccc2c(=O)o1)N1CCOCC1
 : -0.1	1	1.0%	2	5	0.8
- COc1ccc(C(=O)N/C(=C\c2cn(S(=O)(=O)N(C)C)c3ccccc23)C(=O)N2CCN(C)CC2)cc1OC
 : 0.0	-2	2.3%	4	1	0.2
- Cc1cc(C)n(CCOc2ccc(Cl)cc2Cl)n1
 : 0.4	3	5.0%	22	8	-1.7
- CCc1cccc(NC(=O)Cn2cc(C(=O)c3ccncc3)c(=O)c3cc(C)c(C)cc32)c1
 : 0.1	/	2.9%	6	/	/
- CCOc1ccc(Cl)cc1S(=O)(=O)NCc1ccccn1
 : -1.2	1	1.2%	-1	/	1.1
- COc1cccc(CSc2nc3cc(C(=O)NC4CCCC4)ccc3c(=O)n2Cc2ccccc2)c1
 : -0.7	/	-0.3%	8	/	/
- N/C(=N\OC(=O)c1ccc(OCC(F)(F)F)nc1)c1ccc(Cl)cc1
 : 0.6	3	0.8%	8	10	?
- CC(=O)Nc1ccc(S(=O)(=O)NCC(=O)NNC(=O)COc2ccccc2Cl)cc1
 : 0.1	2	1.1%	-11	-7	-4.1
- Cc1ccc(OCC(=O)O)c(O)c1
 : -0.5	1	6.5%	-11	3	-1.7
- CCC(=O)Nc1ccc(C)cc1-c1nc2ccccc2n(Cc2ccccc2)c1=O
 : 0.4	/	-0.7%	22	/	/
- N#Cc1nc(COc2ccc(F)cc2)oc1NCCN1CCOCC1
 : 0.2	2	-0.4%	-9	6	4.9
- O=C(CN1C(=O)CSc2ccc(S(=O)(=O)N3CCOCC3)cc21)NCCCN1CCCCC1
 : -0.3&-0.4	2	-1.8%&0.7%	-12&-10	4	-3.9
- O=C(/C=N\O)NCCCNCc1ccccc1
 : 0.4	7	/	1	11	0.7
- CCn1cc(SCC(=O)NC2CCCC2)c2ccccc21
 : 1.6	16	1.9%	4	2	-3.3
- N#C/C(=C(/O)CCl)c1nc2ccccc2[nH]1
 : 0.2	-13	7.2%	10	4	-4.9
- O=c1[nH]c(=S)[nH]c2c1C(c1ccc(Cl)cc1)OC(C1CCCCC1)C2 (stereo not given)
 : 0.4	-2	25%	24	-2	-2.1
- O=C(CN1c2cccc3cccc(c23)S1(=O)=O)NCCc1ccccc1
 : 0.2	9	3.3%	3	0	0.4
- Cc1ccc(C(=O)Nc2cccc(-c3nc4ccccc4o3)c2)c(Cl)c1
 : 1.2	/	11%	7	/	/
- CCOc1ccc(-n2c(C)nc(O)c2N=Nc2ccccc2)cc1
 : 0.4	-7	1.5%	-14	-11	-2.3
- COc1ccc(-c2noc(N3CCC(C(=O)Nc4ccc(F)cc4F)CC3)n2)cc1
 : -0.7	-3	5.3%	-4	1	-2.4
- COCCN1C=C(C(=O)OC)C(c2cc(Br)c(OC)c(OC)c2)C(C(=O)OC)=C1
 : -0.3	24	4.4%	11	17	-1.0
- Cn1ncc([N+](=O)[O-])c1C(=O)Nc1ccc(-c2nc3ccccc3o2)cc1
 : 0.4	0	8.1%	-9	-1	-3.4
- CCc1ccc2[nH]c(=O)c(CN(Cc3ccco3)C(=S)NCC3CCCO3)cc2c1 (stereo not given)
 : 1.5	-21	0.7%	-3	-18	-0.5
- O=S(N1CCCCC1)C12CC3CC(CC(C3)C1)C2 (stereo not given)
 : 0.0	-2	1.0%	-1	7	0.5
- O=C(COC(=O)c1cnc(Cl)c(Cl)c1)NC1CCCCCC1
 : -0.6	3	3.9%	34	-1	13

# Additional records.
# Screens in order – TRPML1 ag	Six1-Eya2 blk	PINK1 expr mod	TRPML1 blocker	CtBP-E1A blk	D2 ag
- Cc1ccc(S(=O)(=O)N2CCOCC2)cc1NC(=O)COC(=O)c1cc(=O)[nH]c2ccccc12
 : -0.3	-11	0.9%	0	-12	-1.6
- O=C(c1ccoc1)N1CCCC(Nc2ccc(F)c(F)c2)C1 (stereo not given)
 : 1.9	-1	-1.2%	16	1	-2.2
- Cc1nn2c(=O)cc(COC(=O)c3ccccc3NC(=O)C(C)C)nc2s1
 : 2.5	/	1.7%	23	/	/
- COc1cccc(-c2ncc3ccccc3c2COC(=O)c2cccs2)c1
 : 0.7	2	-0.6%	-28	5	-3.6
- COc1ccc(-c2ccnc(SCC(=O)c3ccc(Br)cc3)n2)cc1
 : 0.2	0	4.9%	0	-4	-3.0
- O=C(COC(=O)c1ccccn1)Nc1cc(Cl)ccc1Cl
 : -0.4	-2	-0.5%	-12	-1	-1.8
- COC(=O)C1=CO[C@@H](O[C@@H]2OC(CO)[C@@H](O)[C@@H](O)[C@@H]2O)C2C1CC[C@]2(C)O (stereo not given in full)
 : /	2	-0.4%	/	7	3.5
- Cn1cc(Br)c(C(=O)NC2CCCCCC2)n1
 : -0.3	2	0.1%	6	3	-0.2
- CCc1ccc(C(=O)NCc2ccc(Cl)cc2)cc1
 : 0.5	4	4.3%	28	4	-3.1
- CS(=O)(=O)c1nsc2nc(=O)c(/C=C3\C=Nc4ccccc43)c(N)n12
 : 1.0	1	2.4%	-4	/	-11
- Cc1ccc(/C=C/C(=O)OCn2nnc3ccccc3c2=O)o1
 : 3.3	2	1.3%	30	-1	1.8
- CCc1nnc(NC(=O)CSc2nnc3c(n2)[nH]c2ccccc23)s1
 : -0.3	-10	-1.2%	-17	13	1.2
- CCCN1Cc2cccc(C(=O)N3CCN(c4ccc(OC)cc4)CC3)c2C1=O
 : -0.5	4	0.8%	5	4	-8.0
- COc1ccc(-c2c(C#N)c(SCC(=O)Nc3cccc(Cl)c3)nc(C)c2C(=O)Nc2ccccc2)cc1OC
 : 0.0	/	18%	-10	/	/
- Cc1cc(C)c2c(n1)sc1c(=O)n(-c3cc(Cl)ccc3C)nnc12
 : 0.0	/	-0.3%	8	/	/
- CCS(=O)(=O)N1CCN=C1SCc1ccccc1
 : -0.2	3	0.5%	9	/	3.1
- Cc1cc(C(=O)N/N=C/c2c[nH]c3ccccc23)cs1
 : -0.9	-6	3.0%	4	-17	-2.0
- CC(=O)c1cccc(NC(=O)CSc2nc3c(c(=O)[nH]2)CCC3)c1
 : 2.7	/	1.3%	4	/	/
- COC(=O)c1cc(C(=O)Nc2nnc(C3CC3)s2)cc([N+](=O)[O-])c1
 : -0.9	0	3.6%	-16	13	4.0
- O=C(Cc1ccc(Cl)cc1)Nc1ccc(CN2CCCCC2)cc1
 : 5.5	6	-0.2%	2	3	-0.6
- COc1ccc(/C=C/C(=O)OCC(=O)NC2CCCCCC2)cc1OC
 : 0.5	-2	1.5%	-4	-4	1.7
- O=C(COC(=O)/C=C/c1ccc(S(=O)(=O)N2CCOCC2)cc1)NC1CCCCCCC1
 : 0.8	3	-0.9%	-4	-9	1.3
- O=[N+]([O-])c1ccc(N2CCCCCC2)c(S(=O)(=O)N2CCCCC2)c1
 : 21	-21	-0.9%	-10	-4	-4.0
- Cc1nn(CC(=O)NCc2cccnc2)c(=O)c2ccccc12
 : -0.8	?	1.0%	23	?	-0.6
- O=C(N/N=C/c1cccc(OC(=O)c2ccc([N+](=O)[O-])cc2)c1)c1cccnc1
 : -0.8	-4	1.7%	9	19	-3.1
- CCOc1ccc(C(=O)Nc2ccncc2)cc1
 : -0.4	0	1.4%[38.3 µM]	-10	-12	3.0
- CCCS(=O)(=O)N1CCCC(C(=O)NCc2cccnc2)C1 (stereo not given)
 : -0.7	4	1.5%	-8	8	0.1
- Cn1c(=O)n(CC(=O)NC2CCCCC2)c(=O)c2ccccc21
 : -0.4	12	1.1%	-17	13	-2.1
- O=S(=O)(c1ccc(N2CC=C(c3ccccc3)CC2)nc1)N1CCCC1
 : -0.2	-7	7.9%[38.3 µM]	2	-8	0.2
- COc1ccccc1N1CCN(C(=O)C2CCN(S(=O)(=O)c3ccccc3)CC2)CC1
 : -0.6	-1	?	-3	5	-1.5

# Of the compounds above, 4 have two or more sulfur atoms.
# Screens in order – TRPML1 ag	Six1-Eya2 blk	PINK1 expr mod	TRPML1 blocker	CtBP-E1A blk	D2 ag
- O=C(CN1C(=O)CSc2ccc(S(=O)(=O)N3CCOCC3)cc21)NCCCN1CCCCC1
 : -0.3&-0.4	2	-1.8%&0.7%	-12&-10	4	-3.9
- CS(=O)(=O)c1nsc2nc(=O)c(/C=C3\C=Nc4ccccc43)c(N)n12
 : 1.0	1	2.4%	-4	/	-11
- CCc1nnc(NC(=O)CSc2nnc3c(n2)[nH]c2ccccc23)s1
 : -0.3	-10	-1.2%	-17	13	1.2
- CCS(=O)(=O)N1CCN=C1SCc1ccccc1
 : -0.2	3	0.5%	9	/	3.1

# Continuation:
# Screens in order – TRPML1 ag	Six1-Eya2 blk	PINK1 expr mod	TRPML1 blocker	CtBP-E1A blk	D2 ag
- CCN(CC(=O)Nc1ccccc1C(=O)OC)S(=O)(=O)c1ccc(OC)cc1
 : 1.9	8	1.0%	20	1	2.9
- NC(=O)CC(NC(=O)c1ccccc1)c1ccc(N2CCC(Br)CC2)c([N+](=O)[O-])c1 (stereo not given)
 : 0.1	6	0.7%	8	5	-2.4
- CCCCNC(=O)Cc1ccc(Br)cc1
 : 0.2	0	-1.8%	0	1	-2.1
- Clc1ccc(-c2cn3cccnc3n2)cc1Cl
 : 0.5	-3	0.0%	5	-1	-1.6
- O=C(NC1CCSC1=O)c1ccc(Cl)cc1 (stereo not given)
 : -0.2	2	-5.6%[38.3 µM]	6	3	-4.8
- CN1c2ccccc2C(=O)/C(=C\Nc2ccc(F)cc2)S1(=O)=O
 : 1.5	4	8.2%	4	6	-2.5
- COc1ccc(C)cc1S(=O)(=O)NC1CCCCC1
 : -0.8	1	0.7%	3	2	-1.5
- CCCSc1ccc([C@H]2N[C@@](CC(C)C)(C(=O)OC)[C@H]3C(=O)N(CC)C(=O)[C@@H]23)cc1
 : 0.7	-3	2.8%	-10	-9	-1.2

# Structural class, the entries above containing a cyano group (3)
# Screens in order – TRPML1 ag	Six1-Eya2 blk	PINK1 expr mod	TRPML1 blocker	CtBP-E1A blk	D2 ag
- N#Cc1nc(COc2ccc(F)cc2)oc1NCCN1CCOCC1
 : 0.2	2	-0.4%	-9	6	4.9
- N#C/C(=C(/O)CCl)c1nc2ccccc2[nH]1
 : 0.2	-13	7.2%	10	4	-4.9
- COc1ccc(-c2c(C#N)c(SCC(=O)Nc3cccc(Cl)c3)nc(C)c2C(=O)Nc2ccccc2)cc1OC
 : 0.0	/	18%	-10	/	/

# Compound activity: PubChem, National Center for Advancing Translational Sciences (NCATS)
